Ab BasE inh: inhibitors of Acinetobacter baumannii siderophore enzyme BasE. purified BasE, fluorescence polarization binding displacement. inhibition, % (no concentration beside the values). 84,000 tested, 0.1% active. AID 485350;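 active = both replicates above 25% with normal brightness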;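 also: 0% = negative plate control signal and 100% = positive plate control signal; stock transfer was 100 nL into about 30 µL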
KSHV LANA nucl: LANA-nucleosome interaction inhibition; 51,000 tested, 0.3% active; AID 720717; z-score (concentration not given with the values); FITC-LANA1-23 / chicken nucleosome fluorescence polarization; stronger effect = lower value;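 active = both repeat wells score below -2 in polarization z-score versus plate sample wells, excluding overly bright wells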;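 also: 100 nL library stock added to about 30 µL; numbers are from one replicate; some results filed as inactive read as strong as hits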
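Assay system: FITC-LANA peptide and chicken nucleosomes; input: 240 nM purified chicken nucleosomes (480 nM peptide binding sites), final; also added: 50 nM FITC-LANA1-23 probe; medium: TEN-BT buffer, pH 7.5; doses: pin-transferred compound, 100 nL; times: 10–45 min, room temperature; technique: fluorescence polarization; replication: duplicates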
Active calls of the source: *; . = not tested or not shown; & = joins results of further samples. A portion of the library; count on the stated rates, not on these rows.

SMILES	Ab BasE inh	KSHV LANA nucl
CC1=C(C(=O)Nc2ccccn2)C(c2ccc(C)cc2)C2=C(CC(C)(C)CC2=O)N1 (configuration not stated)	1.4	.
CC1CCN(CC(=O)Nc2ccc(S(=O)(=O)N3CCCCC3)cc2)CC1	4.5	-0.16
CN(C)c1c(F)cc(C(=O)NC(=O)NCc2cccnc2)cc1F	1.4	.
COC(=O)c1cc(S(=O)(=O)NCCCN2CCN(Cc3ccccc3)CC2)cn1C	1.9	1.1
O=C(O)CCCN=CC1=C(O)CCCC1=O	1.3	-0.5
CCC1Oc2ccc(C)cc2N(Cc2ccc(F)cc2)C1=O (configuration not stated)	4.0	0.35
CSc1ccc(C(=O)CCC(=O)OCc2ncc(-c3ccccc3)o2)cc1	1.1	.
CCOC(=O)c1c(NC(=O)c2ccc(Cl)cc2Cl)n[nH]c1N	1.5	.
O=S(=O)(NCc1ccccc1)c1ccc(Cl)cc1	-0.8	.
O=C(/C=c1/[nH]c(=O)/c(=C/c2cccc(C(F)(F)F)c2)s1)c1ccco1	-5.4	.
O=C(O)CN1C(=O)/C(=N\N2C(=O)CSC2=S)c2ccccc21	0.9	-0.92
c1cc(CNC2CCCCC2)co1	1.2	0.67
CCNS(=O)(=O)c1cc(OC)c(Cl)cc1OC	0.3	0.11
CC(=O)Nc1ccc(C(=O)CSc2nnc(-c3cccc(Br)c3)o2)cc1	2.3	-0.68
COc1cc(C(=O)OC(C)C#N)cc(Br)c1O (configuration not stated)	1.4	.
Cc1ccc2c(c1)NC(C1CC1)=NC(c1ccc(F)cc1)=N2	-2.5	1.9
CCOC(=O)C1=C(CN(C)c2ccccc2)NC(=O)NC1c1ccc(OC(C)C)cc1 (configuration not stated)	0.8	0.21
O=C1CN(c2ccccc2)C(=O)C1C(=O)Nc1ccccc1 (configuration not stated)	0.4	-0.13
COC(=O)c1sccc1NC(=O)CC1C(=O)NCCN1C(=O)NS(=O)(=O)c1ccc(C)cc1 (configuration not stated)	0.2	-1.2
COc1cccc(CNC(=O)C2CSC3(CCN(C)CC3)N2C(C)=O)c1 (configuration not stated)	-1.6	-1.2
COc1cccc(-c2ccc(=O)n(CC(=O)NCc3ccccc3)n2)c1	0.7	0.34
COC(=O)c1c(C)sc2cc(C(C)(C)C)sc12	1.0	.
Cc1ccc(C)c(-n2[nH]cc(-n3cncn3)c2=O)c1	.	-0.33
Cc1ccc(C23CCC(=O)N2C(C(=O)N2CCN(c4ccc(F)cc4)CC2)CS3)cc1 (configuration not stated)	0.4	.
O=C(NC1CCN(C(=O)NCc2ccccc2)CC1)c1ccco1	0.9	0.16
COc1ccccc1CNCC(=O)NCc1ccc(C)cc1	-3.0	0.15
Cc1ccc(C(=O)N/N=C2\CC3CC=CC23)c(C)c1 (configuration not stated)	3.3	.
Cc1cc(N)c2ccccc2n1	0.4	-0.17
CC1Sc2ccc(C(=O)O)cc2NC1=O (configuration not stated)	0.4	.
Cc1c(C(=O)NC(=S)Nc2ccc(Br)cn2)oc2ccccc12	-0.8	.
CCCn1c(=S)[nH]c2sc3c(c2c1=O)CCCC3	3.8	.
CC(Sc1n[nH]c(N)n1)C(=O)Nc1ccccc1 (configuration not stated)	-4.9	.
O=S(=O)(Cc1ccccc1)Nc1cccnc1	2.4	.
CC(C)(ONC(=O)Nc1ccccc1Cl)C(=O)O	-2.4	1.2
CC1O[C@@H](OC2/C=C/C=C/C=C/C=C/C[C@@H](C)OC(=O)/C=C/[C@H]3O[C@@H]3C[C@H](O)C[C@]3(O)C[C@H](O)[C@@H](C(=O)O)[C@H](C2)O3)C(O)C(N)[C@@H]1O (some centres not stated)	-3.1	0.29
CCn1c(=O)n(Cc2ccc3c(c2)OCO3)c(=O)c2oc3ccccc3c21	-0.5	0.66
COc1ccc(C(CNS(=O)(=O)c2cccc(C(=O)O)c2)N2CCCC2)cc1 (configuration not stated)	0.7	.
CN1C(=O)/C(=C\c2cccc(C(F)(F)F)c2)c2ccccc21	4.1	.
CCCC(=O)Nc1cc(C)c(NC(=O)CCC)cn1	0.1	-0.58
S=c1nn[nH]n1C1CC2CC1C1C=CCC21 (configuration not stated)	0.7	.
Cc1cc(=O)oc2cc(OCC(=O)N3CCOCC3)ccc12	-0.3	-0.27
Cc1ccc(/C=[N+](\[O-])c2ccc(N(C)C)cc2)c2nsnc12	-0.7	-0.45
Cc1ccc(C2=NC(c3ccc(F)cc3)=Nc3ccc(Cl)cc3N2)o1	-0.3	0.71
CC(NC1CCCC(C)C1C)C(=O)Nc1ccc2c(c1)OCCO2 (configuration not stated)	0.6	.
COc1ccc(/C=N/O)cc1COc1ccc(NC(C)=O)cc1	1.4	1.1
COc1ccccc1C=Nc1ccc2c(c1)nc(C)n2Cc1ccccc1	0.9	.
CCn1c(Cc2ccccc2)nnc1SCC(=O)Nc1ccccc1	0.6	-0.17
CC1(C)CC(CC#N)(c2ccccc2)CCO1 (configuration not stated)	1.9	-0.39
CC(C)C(NC(=O)c1ccc(C2SCC(=O)N2Cc2ccco2)cc1)C(C)C (configuration not stated)	-1.2	0.54
C=CCNC(=S)N1CCNC(=O)C1CC(=O)Nc1cc(Cl)ccc1OC (configuration not stated)	-0.1	0.072
Clc1ccc2nc(-c3ccccc3)cn2c1	-0.6	0.57
O=C(CN1C(=O)COc2ccccc21)N1CCCC1	0.6	0.74
Cc1c(Cl)cccc1NC(=S)NN(C)C	0.8	-0.36
Cn1ccnc1-c1ccc(-c2nccn2C)cc1	3.1	-1.3
O=C(Nc1ccc(-c2nc3ccccc3[nH]2)cc1)c1ccc(-c2ccccc2)cc1	3.6	.
O/N=C(\Cn1cncn1)c1ccc(Cl)cc1Cl	1.8	.
CC(C)CCn1c(O)c(N=NC(N)=O)c2ccccc21	-0.8	0.41
CCn1cc(-c2cc(C(=O)O)c3ccccc3n2)cn1	-2.0	-0.36
O=C(OCc1ccc(Cl)cc1)c1cccs1	1.4	0.53
C=C(C)CC1C(=O)NN=C1C (configuration not stated)	2.5	.

An excerpt of these results, field by field:
Cn1ccnc1-c1ccc(-c2nccn2C)cc1
  Ab BasE inh: 3.1
  KSHV LANA nucl: -1.3

O=C(OCc1ccc(Cl)cc1)c1cccs1
  Ab BasE inh: 1.4
  KSHV LANA nucl: 0.53

Cc1ccc(/C=[N+](\[O-])c2ccc(N(C)C)cc2)c2nsnc12
  Ab BasE inh: -0.7
  KSHV LANA nucl: -0.45

Cc1c(Cl)cccc1NC(=S)NN(C)C
  Ab BasE inh: 0.8
  KSHV LANA nucl: -0.36

(continued)
SMILES	Ab BasE inh	KSHV LANA nucl
CN(C)C(=S)Nc1ccccc1	1.8	.
CCCNC(=O)c1c(C)c(C(=O)OCC)n(CC)c1C	1.5	0.73
Cn1c(=NC(=O)c2cccc(OC(F)F)c2)sc2ccccc21	-0.4	.
CC(C)(C)NS(=O)(=O)c1ccc(N2CCCC2=O)cc1Cl	0.6	0.18
Cc1ccccc1OCc1nc2ccccc2c(=O)n1/N=C/c1ccco1	1.0	.
Cc1cccc(-n2c(N)cc(=O)nc2SCC(=O)NC2CCCCC2)c1	1.5	0.036
O=C(c1cc2nc(-c3ccccc3)cc(C(F)(F)F)n2n1)N1N=C(C(F)F)CC1(O)C(F)F (configuration not stated)	4.3	0.3
CC(C)(C)c1ccc(OCC(=O)n2ncc(C#N)c2N)c(C(C)(C)C)c1	5.1	.
O=C(N/N=C/c1c[nH]c2ccccc12)c1cccc(O)c1	21	-0.36
CC(C)n1c(NCc2ccccc2O)nc2ccccc21	-3.0	1.1
Cc1cccc(C(=O)Nc2ccc(NC(=O)c3ccco3)cc2)c1	0.5	.
CCOC(=O)c1c(C)nc2ccccc2c1N	1.2	-0.49
CCOC(=O)c1cnc(N2CCCCC2)nc1C	1.2	-0.048
CSCc1cccc(C(=O)O)c1	4.1	.
O=C(CNS(=O)(=O)c1ccccc1F)OCc1nc2ccccc2s1	-1.1	.
O=c1oc2c3c(c(Cl)cc2c2c1CCC2)OCN(Cc1ccccc1)C3	2.3	0.4
CN1CN=C(SCc2cccc(C#N)c2)NC1	.	-0.34
COC(=O)COc1cc(O)c2c(=O)c(-c3ccc4c(c3)OCCO4)coc2c1	-0.7	.
Cc1ccc(S(=O)(=O)c2c(CO)c(-c3ccccc3)nn2C)cc1	.	-0.27
COc1cc2ccc(=O)oc2cc1O	-1.9&-0.9	2&-0.26

3 entries from above, ordered by formula weight, rising:
SMILES	Ab BasE inh	KSHV LANA nucl
CC(C)n1c(NCc2ccccc2O)nc2ccccc21	-3.0	1.1
CC(C)(C)NS(=O)(=O)c1ccc(N2CCCC2=O)cc1Cl	0.6	0.18
Cc1cccc(-n2c(N)cc(=O)nc2SCC(=O)NC2CCCCC2)c1	1.5	0.036

The main list resumes, repeating the 2 entries before the break.
SMILES	Ab BasE inh	KSHV LANA nucl
Cc1ccc(S(=O)(=O)c2c(CO)c(-c3ccccc3)nn2C)cc1	.	-0.27
COc1cc2ccc(=O)oc2cc1O	-1.9&-0.9	2&-0.26
COc1ccc(CCNC(=O)CCc2nnc3n(C)c(=O)c4sccc4n23)cc1OC	-4.5	2.2
Nn1c(SCC(=O)c2ccc[nH]2)nnc1SCC(=O)c1ccc[nH]1	-3.0	.
CC(C)Cn1c2ccccc2c2cc(C(=O)O)ccc21	1.7	0.43
N#CC(=C=[N-])c1nc2ccccc2nc1-[n+]1ccccc1	0.3&-1.1	.
Oc1ccc(Br)cc1C=Nc1cccc(-c2nc3ccccc3o2)c1	1.6	-0.56
CN(/N=C/c1ccccc1)C1=NS(=O)(=O)c2ccccc21	6.2	.
COc1cccc(C(=O)OCc2ccccc2C#N)c1O	-4.9	.
O=C(CCc1ccccc1)N/N=C/c1ccncc1	2.6	-0.13
CCOC(=O)C1=C(SCC)c2cc3c(n2C1=O)CCCC3	1.9	-0.12
NCCSC12CC3CC(CC(C3)C1)C2	-1.8	.
CCN(CC)C(=O)c1ccc2nc(N)sc2c1	1.9	-0.41
CC1CN(C(=O)Cn2nc(C(=O)O)c3ccccc3c2=O)CC(C)O1 (configuration not stated)	1.4	.
COc1ccc(-c2csc(N)n2)cc1C	0.1	-0.093
COc1ccccc1NC(=O)Cc1nn(C)c(=O)c2ccccc12	3.0	-0.46
Fc1ccc(-c2nnc(Cc3nnc(-c4ccc(F)cc4)o3)o2)cc1	0.1	-0.059
N#C/C(=C/c1ccccc1)c1ccc(C#N)cc1	4.8	-0.62
CC1CCN(S(=O)(=O)N2CCCC(C(=O)Nc3ccccc3C(=O)c3ccccc3)C2)CC1 (configuration not stated)	-0.4	-2.2*
CCCCOC(=O)C1Cc2ccccc2C(=O)O1 (configuration not stated)	4.0	0.61
CCOC(=O)C(C(N)=O)C1(O)OC(c2ccccc2)=CC1=O (configuration not stated)	1.4	0.29
Cc1nc(Nc2ccccc2)nc(=O)n1-c1ccccc1	-0.2	0.47

Single records (already shown). Order of screens: Ab BasE inh, KSHV LANA nucl
N#CC(=C=[N-])c1nc2ccccc2nc1-[n+]1ccccc1 across the screens: 0.3&-1.1, .
CC(C)Cn1c2ccccc2c2cc(C(=O)O)ccc21 across the screens: 1.7, 0.43
Nn1c(SCC(=O)c2ccc[nH]2)nnc1SCC(=O)c1ccc[nH]1 across the screens: -3.0, .
CC1CN(C(=O)Cn2nc(C(=O)O)c3ccccc3c2=O)CC(C)O1 (configuration not stated) across the screens: 1.4, .

(list continues)
SMILES	Ab BasE inh	KSHV LANA nucl
O=C(Nc1ccc2nsnc2c1)C1CC1	0.3	0.012
CCNC(=S)N(C)Cc1cc(Br)ccc1OC	-6.0	.
COc1ccccc1NC(=O)CC(NC1CCCCC1)C(=O)O (configuration not stated)	-2.5	0.46
CCc1ccc(S(=O)(=O)c2cnc3ccccc3c2N2CCN(C)CC2)cc1	-3.5	0.63
CC(C)C(N)c1nc2ccccc2[nH]1 (configuration not stated)	0.6	.
CCN1C(=O)C2C(c3ccc(F)cc3)NC(CCSC)(C(=O)OC)C2C1=O (configuration not stated)	0.9	0.72
COC(=O)c1nn(-c2ccccc2)cc1OCC(=O)N1CCc2ccccc21	0.3	.
CCN(CC)C(=O)C1CC(c2ccc(F)cc2)=NO1 (configuration not stated)	0.6	-0.54
CCCN(CCC)C(=O)c1cnn(-c2ccc(F)cc2)c1-n1cccc1	-2.6	-0.035
CCNc1nc(SCC(=O)OCC)nc2sc3c(c12)CCC(C)C3 (configuration not stated)	1.5	.
Oc1ccccc1N1CCN(C=Nc2nc3ccccc3nc2N2CCOCC2)CC1	1.4	.
Cc1cc(C)cc(-n2cnc3ccccc3c2=O)c1	-0.6	-0.13
O=C(Nc1ccccc1)NC(c1ccccc1)c1nnc(-c2ccccc2)o1 (configuration not stated)	0.3	0.8
Cc1nn(-c2ccccc2)c2c1P(=O)(O)/C(=C1/N(C)c3ccccc3C1(C)C)C=N2	-1.6	.
CC(Sc1nccn1C)C(=O)NC1(C#N)CCCCC1 (configuration not stated)	0.3	.
CC(=O)Nc1nc(-c2ccccc2)nc2sc(C#N)c(C)c12	0.7	-0.12
O=C1C2Cc3ccccc3CN2C(=S)N1Cc1ccccc1 (configuration not stated)	0.9	.
CCN1CCN(C(=O)C(N)Cc2ccccc2)CC1 (configuration not stated)	-3.6	.
O=S(=O)(NCc1cccnc1)c1ccc2ccccc2c1	0.2	-0.17
CCOC(=O)c1cc(-c2cc(OC)ccc2OC)no1	0.1	.
Cc1nnc(SCC(=O)OC2CC(C)CCC2C(C)C)[nH]c1=O (configuration not stated)	2.5	-1
COc1ccc(S(=O)(=O)NCc2cccnc2)cc1C(=O)N1CCOCC1	-0.3	-0.74

Assay outcomes as filed in PubChem BioAssay.
